GIRK2 act: opens human GIRK2 potassium channels | P48051 | 0.05% of 63,000 active | HEK293-GIRK2 thallium flux, Thallos fluorescence | calls only for hits at 25 µM;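 active means among the strongest 0.2% of first-round signals and kept after retests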;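 further: first round at about 10 µM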
Target sequence (P48051 whole entry, looked up): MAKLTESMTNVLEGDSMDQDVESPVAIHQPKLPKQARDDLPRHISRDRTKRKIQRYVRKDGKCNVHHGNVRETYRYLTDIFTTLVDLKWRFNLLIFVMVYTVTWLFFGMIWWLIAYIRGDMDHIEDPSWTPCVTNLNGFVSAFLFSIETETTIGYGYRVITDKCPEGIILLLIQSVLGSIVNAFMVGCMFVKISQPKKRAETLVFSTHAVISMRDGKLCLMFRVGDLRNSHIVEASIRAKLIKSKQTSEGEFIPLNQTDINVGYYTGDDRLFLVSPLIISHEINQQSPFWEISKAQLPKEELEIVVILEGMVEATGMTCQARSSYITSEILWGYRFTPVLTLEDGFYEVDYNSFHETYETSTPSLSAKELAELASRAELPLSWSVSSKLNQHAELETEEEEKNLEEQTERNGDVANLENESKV
Calls only. Some of the compounds tested; count on the stated rates, not on these rows.

Screening COCCCn1c(-c2ccc([N+](=O)[O-])cc2)nc2c(c(=O)c3ccccc3n2C)c1=O returned GIRK2 act inactive.
Screening O=C(O)CC1C(=O)NC(=O)N1Cc1ccccc1 (configuration not stated) returned GIRK2 act inactive.
`COc1cccc(C(C)NC(=O)Cn2c(C)nc3c(c2=O)CN(Cc2ccccc2)CC3)c1` (configuration not stated) gave GIRK2 act inactive.
CC[C@H](C)C(=O)O[C@H]1C[C@H](O)C=C2C=C[C@H](C)[C@H](CC[C@@H](O)C[C@@H](O)CC(=O)O)[C@H]21 was read as GIRK2 act inactive.
For O=C(CSc1ncc(S(=O)(=O)c2cccc(Cl)c2)c(=O)[nH]1)Nc1ccc(F)cc1 the results were GIRK2 act inactive.
Screening COc1ccc(CCNC(=O)CN2C(=O)N(C)C3(CCCCC3)C2=O)cc1OC returned GIRK2 act inactive.
`CCOc1ccc2nc(NC(=O)c3ccc(=O)n(Cc4ccccc4)c3)sc2c1` gave GIRK2 act inactive.
CC(C)OC(=O)CN1N=C(C(=O)N2CCCC2)S(=O)(=O)c2ccccc21 was read as GIRK2 act inactive.
`COCCn1c(=S)[nH]c2cc(C(=O)Nc3ccccn3)ccc2c1=O` gave GIRK2 act inactive.
O=C(NCc1ccccc1)c1ccc(S(=O)(=O)N2CCCc3ccccc32)cc1 was read as GIRK2 act inactive.
For Cc1ccc(Cn2cc(S(=O)(=O)N3CCCCCC3)ccc2=O)cc1 the results were GIRK2 act inactive.
`COc1cccc(C(=O)Oc2ccc(/C=C/c3ccccn3)cc2)c1` gave GIRK2 act inactive.
Screening O=C(NCc1cccs1)Nc1ccc2c(c1)CCCN2S(=O)(=O)c1ccccc1 returned GIRK2 act inactive.
`Cc1cc(NC(=O)c2ccc([N+](=O)[O-])o2)n(-c2nc3c(F)cccc3s2)n1` gave GIRK2 act inactive.
CC(=O)N1CCN(S(=O)(=O)c2cccc(C(=O)Nc3cccc(C)n3)c2)CC1 was read as GIRK2 act inactive.
Screening Cc1cc(N2C(=O)C(O)=C(C(=O)c3cc4ccccc4o3)C2c2ccccc2)no1 (configuration not stated) returned GIRK2 act inactive.
Cn1cc(OCc2ccc(F)cc2)c(=O)cc1C(=O)NCc1ccc(Cl)cc1 was read as GIRK2 act inactive.
`CC(NC(=O)Cn1cnc(-c2noc(-c3ccncc3)n2)c1)c1ccccc1` (configuration not stated) gave GIRK2 act inactive.
`Cn1nc(CNC(=O)NCc2cccs2)cc1-c1ccncc1` gave GIRK2 act inactive.
For CC(C)(C)C(=O)N1CCN(CCO)CC1 the results were GIRK2 act inactive.
O=C(NC1(c2nc(-c3ccncc3)no2)CCCCC1)C1CC1 was read as GIRK2 act inactive.
Screening CN1CCOc2ccc(NS(=O)(=O)c3ccc(N4CCCCS4(=O)=O)cc3)cc2C1=O returned GIRK2 act inactive.
`Cc1ccc(CNC(=O)CSc2nc3c(sc4ncccc43)c(=O)n2Cc2ccccc2)cc1` gave GIRK2 act inactive.
For O=C(NCC(c1cccs1)S(=O)(=O)c1ccc(F)cc1)c1cnccn1 (configuration not stated) the results were GIRK2 act inactive.
For COCCOC(=O)C1=C(C)NC(C)=C(C(=O)OC(C)C)C1c1cccc([N+](=O)[O-])c1 (configuration not stated) the results were GIRK2 act inactive.
Screening COCCn1c(SCc2nc(-c3cccc(C(F)(F)F)c3)no2)nc2ccsc2c1=O returned GIRK2 act inactive.
For Cc1cc(C)c(S(=O)(=O)N(C)c2ccccc2C)cc1N(C)S(=O)(=O)c1ccccc1 the results were GIRK2 act inactive.
For Cc1cc(N2CCN(C(=O)c3ccc(=O)n(Cc4cccc(F)c4)n3)CC2)ncn1 the results were GIRK2 act inactive.
Screening O=C(NCCC(O)C1CC1)C1(c2cccs2)CCCC1 (configuration not stated) returned GIRK2 act inactive.
O=C(NC1CCN(C(=O)c2cn(-c3ccc(Cl)cc3)nn2)CC1)C1CCCC1 was read as GIRK2 act inactive.
For COc1ccc(-c2cc(N3CCC(C(=O)NCc4ccccc4Cl)CC3)ncn2)cc1 the results were GIRK2 act inactive.
CN(C)S(=O)(=O)c1ccc(C(=O)N(C(=O)N2CCCCC2)c2ccccc2)cc1 was read as GIRK2 act inactive.
COc1cccc(NC(=O)NC2(c3nc(-c4ccccc4)no3)CCCCC2)c1 was read as GIRK2 act inactive.
For N#Cc1ccccc1NC(=O)CSc1cc(N2CCCC2)ncn1 the results were GIRK2 act inactive.
For COc1cccc(C(=O)NCCNc2cc(-n3ccnc3C)nc(C)n2)c1OC the results were GIRK2 act inactive.
For CCc1cccc(NC(=O)Cn2ccn3nc(-c4ccc(OC)c(OC)c4)cc3c2=O)c1 the results were GIRK2 act inactive.
`COc1ccc(-c2ccc(=O)n(Cc3nc(-c4ccc(OC(C)C)cc4)no3)n2)cc1` gave GIRK2 act inactive.
For N#Cc1ccc(NC(=O)Cn2cccc(-c3nc(-c4ccc(Cl)cc4)no3)c2=O)cc1 the results were GIRK2 act inactive.
`CCN(CC)c1ccc(N2C(=O)/C(=C/c3cccc(O)c3)SC2=S)cc1` gave GIRK2 act inactive.
`Cc1cccc(-c2nnc(NC(=O)c3sc4ccccc4c3Cl)o2)n1` gave GIRK2 act inactive.

Copied from the entries so far for reference:
For O=C(NCC(c1cccs1)S(=O)(=O)c1ccc(F)cc1)c1cnccn1 (configuration not stated) the results were GIRK2 act inactive.
For COCCOC(=O)C1=C(C)NC(C)=C(C(=O)OC(C)C)C1c1cccc([N+](=O)[O-])c1 (configuration not stated) the results were GIRK2 act inactive.
Screening COCCn1c(SCc2nc(-c3cccc(C(F)(F)F)c3)no2)nc2ccsc2c1=O returned GIRK2 act inactive.
For Cc1cc(C)c(S(=O)(=O)N(C)c2ccccc2C)cc1N(C)S(=O)(=O)c1ccccc1 the results were GIRK2 act inactive.
For Cc1cc(N2CCN(C(=O)c3ccc(=O)n(Cc4cccc(F)c4)n3)CC2)ncn1 the results were GIRK2 act inactive.
Screening O=C(NCCC(O)C1CC1)C1(c2cccs2)CCCC1 (configuration not stated) returned GIRK2 act inactive.
O=C(NC1CCN(C(=O)c2cn(-c3ccc(Cl)cc3)nn2)CC1)C1CCCC1 was read as GIRK2 act inactive.
For COc1ccc(-c2cc(N3CCC(C(=O)NCc4ccccc4Cl)CC3)ncn2)cc1 the results were GIRK2 act inactive.
CN(C)S(=O)(=O)c1ccc(C(=O)N(C(=O)N2CCCCC2)c2ccccc2)cc1 was read as GIRK2 act inactive.
COc1cccc(NC(=O)NC2(c3nc(-c4ccccc4)no3)CCCCC2)c1 was read as GIRK2 act inactive.
For N#Cc1ccccc1NC(=O)CSc1cc(N2CCCC2)ncn1 the results were GIRK2 act inactive.
For COc1cccc(C(=O)NCCNc2cc(-n3ccnc3C)nc(C)n2)c1OC the results were GIRK2 act inactive.
For CCc1cccc(NC(=O)Cn2ccn3nc(-c4ccc(OC)c(OC)c4)cc3c2=O)c1 the results were GIRK2 act inactive.
`COc1ccc(-c2ccc(=O)n(Cc3nc(-c4ccc(OC(C)C)cc4)no3)n2)cc1` gave GIRK2 act inactive.
For N#Cc1ccc(NC(=O)Cn2cccc(-c3nc(-c4ccc(Cl)cc4)no3)c2=O)cc1 the results were GIRK2 act inactive.
`CCN(CC)c1ccc(N2C(=O)/C(=C/c3cccc(O)c3)SC2=S)cc1` gave GIRK2 act inactive.
`Cc1cccc(-c2nnc(NC(=O)c3sc4ccccc4c3Cl)o2)n1` gave GIRK2 act inactive.

More compounds:
O=C(NCC1(O)CCOc2ccccc21)c1ccc2c(c1)OCO2 (configuration not stated) was read as GIRK2 act inactive.
For Cc1nc(NC(=O)c2n[nH]c3ccccc23)sc1C(=O)N(C)C the results were GIRK2 act inactive.
CCOc1ccccc1NC(=O)Cn1nc(C(=O)N2CCOCC2)cc1C1CC1 was read as GIRK2 act inactive.
CCOCCn1c(-n2nc(C)cc2C)nc2c1c(=O)n(Cc1ccccc1)c(=O)n2C was read as GIRK2 act inactive.
For COc1ccc(CNC(=O)Cn2c(N3CCCC3)nc(C)cc2=O)cc1 the results were GIRK2 act inactive.
COc1ccccc1C1(CNC(=O)CSc2ccc(F)cc2)CCOCC1 was read as GIRK2 act inactive.
`Nc1nonc1-c1nc2cnccc2n1C1CC1` gave GIRK2 act inactive.
For COc1ccc(OCC(=O)NCC2(c3cccs3)CCOCC2)cc1 the results were GIRK2 act inactive.
COc1ccc(NC(=O)C(C)N2C(=O)c3ccccc3S2(=O)=O)cc1 (configuration not stated) was read as GIRK2 act inactive.
Screening Cn1c(=O)c2c(ncn2CC(=O)NCCc2csc(-n3cccn3)n2)n(C)c1=O returned GIRK2 act inactive.
O=C(Nc1ccccc1Cl)N1CCCC(c2nnc(-c3ccccc3F)s2)C1 (configuration not stated) was read as GIRK2 act inactive.
For CCCCCn1c(SCC(=O)OCC)nc2cc(C(=O)N3CCOCC3)ccc2c1=O the results were GIRK2 act inactive.
Screening CCCS(=O)(=O)N1CCCc2cc(NS(=O)(=O)c3ccc(OC)cc3)ccc21 returned GIRK2 act inactive.
Screening CCOc1ccccc1NC(=O)CN1C(=O)C2(SCC(=O)N2c2cccc(F)c2)c2ccccc21 (configuration not stated) returned GIRK2 act inactive.
O=C(c1ccc(-n2cccn2)nn1)N1CCN(c2cccc(C(F)(F)F)c2)CC1 was read as GIRK2 act inactive.
Cc1cc(C)c(C)c(S(=O)(=O)N2CCCCCC2)c1C was read as GIRK2 act inactive.
`O=c1c2oc3ccccc3c2[nH]c(=S)n1Cc1cccs1` gave GIRK2 act inactive.
For Cc1ccc(NC(=O)COc2cc(C)nc(N3CCCCCC3)n2)cc1 the results were GIRK2 act inactive.
`CC(=O)Nc1cccc(NC(=O)Cc2cc(=O)[nH]c(SCc3ccccc3)n2)c1` gave GIRK2 act inactive.
COc1ccc(NC(=O)NCC2(CO)CC2)cc1OC was read as GIRK2 act inactive.
Cc1csc(NC(=O)Cn2cnc3ccccc32)n1 was read as GIRK2 act inactive.
CC1Oc2ccccc2OC1C(=O)N1CCC(Oc2ccccn2)CC1 (configuration not stated) was read as GIRK2 act inactive.
Screening COc1ccccc1C1(CNC(=O)c2c(-c3ccccc3Cl)noc2C)CCOCC1 returned GIRK2 act inactive.
O=C(Cc1csc(Nc2ccccn2)n1)NCc1nc2ccccc2[nH]1 was read as GIRK2 act inactive.
`Cc1ccc(C(O)CNC(=O)/C=C/c2cccs2)o1` (configuration not stated) gave GIRK2 act inactive.
`O=C(CCS(=O)(=O)Cc1ccccc1)N1CCN(c2ccccc2)CC1` gave GIRK2 act inactive.
Screening O=C(/C=C/c1ccc2c(c1)OCO2)N1C2CCCC1COC2 returned GIRK2 act inactive.
Screening CC(C)(C)NC(=O)N1CCC(CNC(=O)NCCOc2ccccc2)CC1 returned GIRK2 act inactive.
For COc1ccc(OC)c(NC(=O)c2c(O)c3sccc3n(C)c2=O)c1 the results were GIRK2 act inactive.
Cc1cc(=O)[nH]c(NCCc2c[nH]c3ccccc23)n1 was read as GIRK2 act inactive.
For COCCN(Cc1ccoc1)C(=O)/C=C/c1ccc2c(c1)OCO2 the results were GIRK2 act inactive.
Screening Cc1cccc(Nc2nc3c(c(=O)n(C)c(=O)n3C)n2CC(=O)N2CCCC2)c1 returned GIRK2 act inactive.
Cc1nc(C)c(C(=O)N2CCC(Oc3ccc(C(F)(F)F)cn3)CC2)s1 was read as GIRK2 act inactive.
`O=C(CSc1nccn2nc(-c3ccc(Cl)cc3)cc12)Nc1ccccc1C(F)(F)F` gave GIRK2 act inactive.
Screening COc1ccc(C2CCN(C(=O)Nc3ccc(Cl)c(Cl)c3)C2)cc1 (configuration not stated) returned GIRK2 act inactive.
For COCCn1c(-c2ccc([N+](=O)[O-])cc2)nc2c(c(=O)c3ccccc3n2C)c1=O the results were GIRK2 act inactive.
CCCCS(=O)(=O)Nc1ccc2c(c1)C(=O)NCC2 was read as GIRK2 act inactive.
For C=CCN1CC(c2nc3ccccc3n2Cc2cc(C)ccc2C)CC1=O (configuration not stated) the results were GIRK2 act inactive.
Screening CCCCOc1ccc(NC(=O)NCCN2CCN(S(C)(=O)=O)CC2)cc1 returned GIRK2 act inactive.
O=C(O)C1CCCCN1S(=O)(=O)c1ccccc1[N+](=O)[O-] (configuration not stated) was read as GIRK2 act inactive.
For Cc1ccc(SCC(=O)Nc2sc3c(c2-c2nc4ccccc4s2)CCN(C)C3)cc1 the results were GIRK2 act inactive.
Screening COc1cccc(-n2c(C)c(C)n3c4c(=O)n(CCc5ccccc5)c(=O)n(C)c4nc23)c1 returned GIRK2 act inactive.
For COC(=O)c1cccc(NC(=O)CSc2nccnc2N2CCN(c3ccccc3OC)CC2)c1 the results were GIRK2 act inactive.
For CCOC(=O)N1CCN(C(=O)Cn2ccc3ccccc32)CC1 the results were GIRK2 act inactive.
For CN(c1ccsc1C(=O)NCCc1ccc(Cl)cc1)S(=O)(=O)c1ccccc1 the results were GIRK2 act inactive.
`COc1ccc(C(CN)N2CCOCC2)cc1` (configuration not stated) gave GIRK2 act inactive.
O=C(NCC(Cc1cccc(F)c1)N1CCNC1=O)c1ccccc1 (configuration not stated) was read as GIRK2 act inactive.
For O=C(NCc1ccc2c(c1)OCO2)c1ccc(=O)n(Cc2cccc(F)c2)n1 the results were GIRK2 act inactive.
Screening CCOc1ccc2cccc(NC(=O)c3ccc4nsnc4c3)c2n1 returned GIRK2 act inactive.
For CCOC(=O)N1CCC(Oc2ccc(C(F)(F)F)cn2)CC1 the results were GIRK2 act inactive.
COc1ccc(S(=O)(=O)NCC(c2ccsc2)N2CCN(C)CC2)cc1 (configuration not stated) was read as GIRK2 act inactive.
Screening COc1cc(C)c(C(C)C)cc1S(=O)(=O)N1CCC(C(N)=O)CC1 returned GIRK2 act inactive.
For CS(=O)(=O)C1CCN(C(=O)C2(c3cccs3)CCCC2)C1 (configuration not stated) the results were GIRK2 act inactive.
`COc1ccccc1NC(=O)C1COCC(=O)N1Cc1cccs1` (configuration not stated) gave GIRK2 act inactive.
For CCn1nc(C)c(CNC(=O)c2[nH]c3ccc(C)cc3c2NC(=O)c2ccc(F)cc2)c1C the results were GIRK2 act inactive.
C=CCOCC(O)Cn1c(N/N=C(/C)c2ccc([N+](=O)[O-])cc2)nc2c1c(=O)n(C)c(=O)n2C (configuration not stated) was read as GIRK2 act inactive.
For CC(=O)c1sc2[nH]c(=S)[nH]c(=O)c2c1C the results were GIRK2 act inactive.
`COc1ccc(-c2cc3ccc4c(c3oc2=O)CN(C2CC2)CO4)c(OC)c1` gave GIRK2 act inactive.
Screening CCn1cc(C(=O)O)c(=O)c2cc(F)c(N3CCN(C)CC3)cc21 returned GIRK2 act inactive.
Screening Cn1nc(C2CCN(C(=O)c3ccccc3Br)CC2)n(-c2ccccc2)c1=O returned GIRK2 act inactive.

Screening data from PubChem BioAssay.
